Assay outcomes (PubChem BioAssay)
Mtb bLac sens: beta-lactam sensitization of Mtb H37Rv | M. tuberculosis H37Rv growth with meropenem, percent inhibition; hits of this screen are not shown here | inhibition, % at 25 µM | 330,000 tested, 0.27% active;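 active = about 74% or more and at least 40 points above the plate without the antibiotic, then above 30% in a dose series; inconclusive = first-round hits that could not be retested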;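 note: growth measured after seven days incubation then overnight dye step; 0% = bacteria only wells and 100% = bacteria with antibiotic; twin plates without the antibiotic show which effects depend on it; some results filed as inactive read as strong as hits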
* = called active by the depositor; ? = inconclusive. Some of the compounds tested; rates above refer to the full screens.

SMILES | Mtb bLac sens
O=C(COC(=O)c1ccccc1-n1cnnn1)c1ccc(F)cc1 | 2.9
COc1ccc(S(=O)(=O)N(C)C[C@H]2Oc3c(NC(=O)CCC(F)(F)F)cccc3C(=O)N([C@H](C)CO)C[C@@H]2C)cc1 | -3.4
COc1cccc(NC(=O)CN(C)C(=O)c2cc(C)oc2C)c1 | -2.6
CCC(=O)Nc1ccc(C(=O)CN2C(=O)NC3(CCCCCC3)C2=O)cc1 | -1.3
Cc1ccc2c(c1)[C@H]1[C@H](CO2)[C@H](c2ccccc2)[C@]2(C)C(=O)Nc3ccc(Cl)cc3C(=O)N12 | 36.4
O=S(=O)(NC1CC1)c1ccc(Cl)cc1F | 5.4
Nc1c(Br)cc([N+](=O)[O-])cc1[N+](=O)[O-] | 0.5
COc1cccc(CNC(=O)COC(=O)CN2C(=O)NC3(CCCCC3C)C2=O)c1 (stereo not drawn) | -8.2
O=C(CC1C(=O)NCCN1Cc1ccccc1F)NC1CCCCCC1 (stereo not drawn) | ?
COc1ccc(CNC(=O)COC(=O)c2ccc(F)c(S(=O)(=O)N3CCOCC3)c2)cc1 | -3.5
CC(C)c1ccc(NC2CCCN(C(=O)CCn3cnnn3)C2)cc1 (stereo not drawn) | -3.9
O=C(NCC(=O)N1CC=C(c2ccccc2)CC1)c1ccc(OC(F)F)cc1 | 37.3
CCOc1cc(CNn2cnnc2)cc(Cl)c1OCC(=O)NC(C)(C)C | -9.7
Cc1cc(OCC(=O)NCC(c2ccc(F)cc2)N2CCOCC2)ccc1Cl (stereo not drawn) | -8.6
COc1ccc(CCNC(=O)COC(=O)c2ccc(C)s2)cc1OC | -3.9
CCCCCn1c(=S)[nH]c2cc(C(=O)N3CCN(C(=O)OCC)CC3)ccc2c1=O | 7.7
O=C(COC(=O)c1cc(S(=O)(=O)N2CCOCC2)ccc1Cl)NCCc1ccccc1 | 1.3
CC(Sc1nnc(-c2ccco2)o1)C(=O)Nc1ccc(OC(F)F)cc1 (stereo not drawn) | -8.3
NS(=O)(=O)c1cccc(NC(=O)COC(=O)CN2C(=O)c3ccccc3C2=O)c1 | -6.7
O=C(COC(=O)c1cccc([N+](=O)[O-])c1)Nc1ncc(Br)s1 | -0.1
CC(=O)c1ccc(-c2ccc(C(=O)NCC(c3ccco3)N(C)C)o2)cc1 (stereo not drawn) | -1.8
C=CCn1cnc2c(c1=O)c1nc3ccccc3nc1n2/N=C/c1cccc(OC)c1OC | 5.9
O=C(NCC(c1ccco1)N1CCCC1)c1cccc(S(=O)(=O)N2CCOCC2)c1 (stereo not drawn) | -1.7
CC(NC(=O)c1ccco1)C(=O)N1CCN(S(=O)(=O)c2ccccc2C#N)CC1 (stereo not drawn) | 0.2
Cc1ccc(C(C)C)c(OCC#CCN2CCOCC2)c1 | 0.1
Cn1nc(C(=O)NNC(=O)C(CCC(N)=O)NS(=O)(=O)c2ccc(Cl)cc2)c2ccccc2c1=O (stereo not drawn) | -5.1
Cc1ccc2c(C)c(C(=O)N3CCN(C4CCS(=O)(=O)C4)CC3)oc2c1C (stereo not drawn) | -5.4
O=C(CNS(=O)(=O)c1cccc(F)c1)OCC(=O)N1CCCC1=O | 1.2
Cc1cc(C)n2nc(C(=O)OCC(=O)NCc3ccc(Cl)cc3)nc2n1 | -3.8
Cc1ccc(C(=O)NCC(=O)NCC(c2cccs2)N2CCOCC2)cc1 (stereo not drawn) | 1.7
O=C(OCC(=O)N1CCc2ccccc21)c1ccccc1[N+](=O)[O-] | -1.6
O=C(COC(=O)c1ccc(Br)o1)Nc1ccc2c(c1)OCCO2 | 45.6
COc1ccccc1NC(=O)COC(=O)CNC(=O)C1CCCCC1 | -1.1
Cc1cccc(C(=O)OCC(=O)N(C)C(c2ccccc2)c2ccccc2)c1[N+](=O)[O-] | 11.0
COc1ccc(C(=O)NCN2CCN(c3ccccc3)CC2)cc1OC | -0.9
Cc1c(N(C)C)c(=O)n(-c2ccccc2)n1C | -3.1
O=C(OCc1c(-c2ccccc2)ncc2ccccc12)c1cccs1 | 3.2
CCOC(=O)[C@H]1[C@H]2COc3ccc(Br)cc3[C@@H]2N2C(=O)CN(Cc3ccco3)C(=O)[C@@]12C | 7.6
Cc1c(C(=O)N2CCC2)oc2ccc(Cl)cc12 | -15.4
Cc1cc(C)n(CC(=O)NNC(=O)COc2ccc(F)cc2Br)n1 | 16.0
COc1ccc(C(N)=O)c(OCC(=O)Nc2cc(C)on2)c1 | -5.9
O=C(COC(=O)c1ccc[nH]c1=O)NC1CC1 | -0.4
COc1cc(OC)cc(C(=O)NNC(=O)c2ccc3c(c2)OCCO3)c1 | -1.7
COc1ccc2c3n(nc2c1)CCN=C3c1cc(Cl)c(N)c(Cl)c1 | 97.3
Oc1ccc(-c2csc(Nc3ccccn3)n2)cc1O | -3.0
CC(=O)O[C@H]1CC(=O)OC(C)(C)C2CC(=O)[C@]3(C)C(CC[C@@](C)([C@@H](O[C@@H]4O[C@H](CO)[C@@H](O)[C@H](O)[C@H]4O)c4ccoc4)[C@@]34O[C@@H]4C(=O)O)[C@]21C (stereo partly drawn) | -5.0
Cc1ccc(N=Nc2c(O)[nH]c(=O)[nH]c2=O)cc1S(=O)(=O)Nc1ccc(Br)cc1 | -6.5
Cc1cc(C(=O)Nc2ccccc2N2CCOCC2)no1 | -1.3
CCOC(=O)[C@@H]1[C@H]2COc3ccc(Br)cc3[C@H]2N2C(=O)N(c3ccc(C(F)(F)F)cc3)C(=O)[C@]12C | -1.3
CC(C)n1cnc2c(NCc3ccccc3)cc(N[C@@H](CO)Cc3ccccc3)cc21 | 100.1

(list continues)
SMILES | Mtb bLac sens
NS(=O)(=O)c1cccc(NC(=O)CCN2C(=O)C3CCCCC3C2=O)c1 (stereo not drawn) | 0.6
CC(C)(C)[C@H]1COC(=O)[C@@H](Cc2ccc(F)cc2)C/C=C\C[C@@H](CC(=O)N[C@@H](CO)Cc2ccccc2)C(=O)N1 | -0.1
Cc1ccccc1-n1nnnc1SCC(=O)NCC1(N2CCOCC2)CCCCC1 | -5.2
Cc1noc(C)c1COC(=O)c1ccc(F)c(S(=O)(=O)N2CCOCC2)c1 | 2.1
CCOC(=O)c1cccc(OC(=O)CCNC(=O)c2ccc(Cl)cc2)c1 | 8.3
Cc1cc(C)cc(NC(=O)[C@H](Cc2c[nH]c3ccccc23)NC(=O)[C@@H]2Cc3ccccc3CN2)c1 | -10.4
O=C(COC(=O)c1ccc[n+]([O-])c1)Nc1ccc([N+](=O)[O-])cc1Cl | 7.2
CC(=O)c1sc(NCc2ccccc2)nc1C | -15.1
Cc1cc(C(=O)COC(=O)c2ccc(F)cc2F)c(C)n1C1CC1 | 2.0
CCOC(=O)C1CCN(CC(=O)Nc2ccc(OC)c(S(=O)(=O)N3CCCCC3)c2)CC1 | -2.5
COc1ccc2sc(-c3ccc(S(C)(=O)=O)cc3)c(C#Cc3cncn3C)c2c1 | 7.9
CC(=O)c1cccc(NC(=O)CCN2C(=O)C3CC=CCC3C2=O)c1 (stereo not drawn) | -7.5
CC(C)[C@H](NC(=O)c1ccccc1)C(=O)Nc1ccc2c(c1)OCO2 | -0.9
CN1CCc2ccccc2Cc2[nH]c3ccccc3c2CC1 | 7.8
COc1ccccc1C(=O)Nc1ccc(OC(C)C(=O)N2CCOCC2)cc1 (stereo not drawn) | -1.3
O=C(Nc1cccc(Cl)c1)c1ccccc1 | -5.1
Cc1nn(CC(=O)N(C)c2c(N)n(Cc3ccccc3)c(=O)[nH]c2=O)c(C)c1[N+](=O)[O-] | 4.2
Cc1c(NC(=O)C(C)Oc2ccccc2F)c(=O)n(-c2ccccc2)n1C (stereo not drawn) | -3.3
CCC(C)Sc1ccc([C@H]2N[C@@](C)(C(=O)OC)[C@H]3C(=O)N(CC)C(=O)[C@@H]23)cc1OC (stereo partly drawn) | -8.5
O=C(COC(=O)c1ccc([N+](=O)[O-])o1)NC1CCCCC1 | 87.6
O=C(COC(=O)c1ccc([N+](=O)[O-])o1)Nc1ncc(Cl)cc1Cl | 27.1
COc1ccc(NC(=O)C2CCN(S(C)(=O)=O)CC2)cc1OC | 3.4
CCN(C(=O)CN1C(=O)NC2(CCc3ccccc32)C1=O)C1CCS(=O)(=O)C1 (stereo not drawn) | -3.6
O=C(c1c(F)cccc1F)N1CCC(O)(c2ccc(F)cc2)CC1 | 3.9
O=C(Nc1ccc([N+](=O)[O-])cc1Cl)c1cc(Cl)ccc1O | 100.0
Cc1ccc(Nc2nnc(SCC(=O)NCC3CCCO3)s2)cc1C (stereo not drawn) | 1.1
Cc1nc(NC(=O)c2cc3ccccc3o2)sc1C | -7.7
CCN(C(=O)COC(=O)COc1ccccc1Cl)c1c(N)n(Cc2ccccc2)c(=O)[nH]c1=O | -5.9
CC(C)c1ccc(N(CC(=O)N2CCN(Cc3ccccc3)CC2)S(C)(=O)=O)cc1 | -4.6
Cc1cccc(N2CC(C(=O)Nc3ccc(S(=O)(=O)NCC4CCCO4)cc3)CC2=O)c1C (stereo not drawn) | -5.9
O=C(NCCOc1ccccc1Cl)c1ccc2c(c1)S(=O)(=O)c1cc(Cl)ccc1C2=O | 3.0
Cc1ccc(S(=O)(=O)N2[C@@H](c3ccc(C(C)(C)C)cc3)C(C(=O)O)=CC[C@H]2c2ccc(Cl)cc2)cc1 | 1.5
Cc1cccc(CNc2ccc(S(=O)(=O)N3CCCCC3)cc2)c1 | 6.2
CCN(c1ccccc1)S(=O)(=O)c1ccc(OC)c(NC(=O)c2cc(F)c(F)c(F)c2F)c1 | -6.2
O=S(=O)(c1ccc2c(c1)CCCN2)N1CCCCC1 | -2.1
CN(Cc1cccc(F)c1)C(=O)c1ccc(S(=O)(=O)N2CCCCCC2)cc1 | -3.2
Nc1cc(C(=O)OCC(=O)Nc2ccc(N3CCOCC3)cc2)ccc1Cl | -8.9
O=C1Cc2cc(S(=O)(=O)Nc3cccc(F)c3)ccc2N1 | 0.1
CCN(c1ccccc1)S(=O)(=O)c1ccc(Cl)c(NC(=O)CN2CCN(C)CC2)c1 | 2.4
COc1cc(/C=C/C(=O)OCC(=O)NCCN2C(=O)CSC2=O)ccc1OCC#N | -1.8
O=C(CN1CCN(S(=O)(=O)c2ccc(Cl)c(Cl)c2)CC1)N1CCCCC1 | 2.0
COC(=O)C1=C(c2ccc(-c3ccccc3)c(F)c2)C[C@@H]2CC[C@H]1N2C(=O)N1CCc2cc(OC)c(OC)cc2C1 | 7.9
CCOC(=O)[C@H]1[C@H]2COc3ccc(OC)cc3[C@@H]2N2C(=O)c3ccc(Cl)cc3NC(=O)[C@@]12C | 0.3
COc1ccc(CNC(=O)C2CCN(C(=O)c3ccccc3)CC2)cc1 | -14.1
O=[N+]([O-])c1ccc(NS(=O)(=O)c2cccc3cccnc23)cc1 | -4.5
COc1ccc(S(=O)(=O)N2CCCCCC2)cc1NC(=O)CN1C(=O)CNC1=O | -1.1
Cc1noc(C)c1S(=O)(=O)Nc1ccc2c(c1)C(=O)N([C@H](C)CO)C[C@H](C)[C@@H](CN(C)C(=O)NC1CCCCC1)O2 | 1.0
COc1ccc(NC(=O)COC(=O)CC2CCCC2)cc1 | -2.0
COc1cccc(CNC(=O)COC(=O)/C=C/c2ccc(SC)cc2)c1 | -2.7
Cc1ccc(NC(=O)[C@H](Cc2c[nH]c3ccccc23)NC(=O)[C@@H]2Cc3ccccc3CN2)c(C)c1 | -3.6

Of the compounds above, 2 have a COOH group:
SMILES | Mtb bLac sens
CC(=O)O[C@H]1CC(=O)OC(C)(C)C2CC(=O)[C@]3(C)C(CC[C@@](C)([C@@H](O[C@@H]4O[C@H](CO)[C@@H](O)[C@H](O)[C@H]4O)c4ccoc4)[C@@]34O[C@@H]4C(=O)O)[C@]21C (stereo partly drawn) | -5.0
Cc1ccc(S(=O)(=O)N2[C@@H](c3ccc(C(C)(C)C)cc3)C(C(=O)O)=CC[C@H]2c2ccc(Cl)cc2)cc1 | 1.5

The main list resumes; the two compounds before the break are reprinted first.
SMILES | Mtb bLac sens
COc1cccc(CNC(=O)COC(=O)/C=C/c2ccc(SC)cc2)c1 | -2.7
Cc1ccc(NC(=O)[C@H](Cc2c[nH]c3ccccc23)NC(=O)[C@@H]2Cc3ccccc3CN2)c(C)c1 | -3.6
CCc1ccccc1NC(=O)CN(c1ccc(OC)cc1OC)S(=O)(=O)c1ccccc1 | 4.8
Cc1ccc(NC(=S)NC(=O)C2CCCCC2)c(Br)c1 | 8.8
O=C(c1cccc([N+](=O)[O-])c1)N1CCN(S(=O)(=O)/C=C/c2ccccc2)CC1 | -1.9
O=S(=O)(Oc1ccccc1C(=S)N1CCOCC1)c1ccc(Cl)cc1 | ?
Cc1cc(OCC(=O)Nc2cccc(S(=O)(=O)N3CCCCC3)c2)ccc1Cl | -0.4
Cc1ccc(OCC(=O)N2CCC(N3CC(C)CC(C)C3)CC2)cc1 (stereo not drawn) | ?
NC(=O)C1CCN(c2nc3ccccc3nc2NS(=O)(=O)c2ccc(Br)cc2)CC1 | -1.5
Cc1noc(C)c1S(=O)(=O)N(C)C[C@H]1Oc2c(NC(=O)Nc3ccc(C(F)(F)F)cc3)cccc2C(=O)N([C@H](C)CO)C[C@@H]1C | 5.8
CC(C)c1ccc(OCC(=O)Nc2ccncc2)cc1 | 87.6
CC(Oc1ccc(Cl)cc1C(N)=O)C(=O)N1CCc2ccccc21 (stereo not drawn) | -10.0
C[C@H](CO)N1C[C@H](C)[C@@H](CN(C)S(=O)(=O)c2cccs2)Oc2ccc(NC(=O)CCC(F)(F)F)cc2C1=O | -6.3
CC(=O)c1c(C)[nH]c(C(=O)OCC(=O)NNC(=O)c2ccc([N+](=O)[O-])cc2)c1C | 23.3
COc1ccc2c(c1)C(=O)N1[C@H]3c4cc(Br)ccc4OC[C@@H]3[C@H](c3ccccc3)[C@]1(C)C(=O)N2 | 93.7
Cc1ccc(/C=C/C(=O)N2CCCC(C(N)=O)C2)o1 (stereo not drawn) | 1.0
O=C(COC(=O)c1ccco1)NCCc1ccc(Cl)cc1 | 15.2
Cc1noc(C)c1NC(=O)N(C)C[C@H]1Oc2c(NC(=O)Nc3ccccc3)cccc2C(=O)N([C@H](C)CO)C[C@@H]1C | -3.7
CSc1ccccc1NC(=O)COC(=O)CCc1ccccc1 | 4.0
